Source: PubChem BioAssay (National Center for Advancing Translational Sciences (NCATS))
RE007 growth inh – qHTS Assay for Inhibitors of the HIV-1 protein Vpr; Potency, µM (highest dose often 92.2 µM), for inactives: at the highest dose activity change, negative = less growth; S. pombe RE007 Vpr strain, BacTiter-Glo ATP luminescence, 24 h; control for the full effect not named in the record; actives 0.21% (n = 360,000); active = well fitted falling curve with a large enough effect; inconclusive = small, poorly fitted or top-dose-only effect; inactive = no such curve, though single readings can be large or run the other way;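 also: nearly all actives have a fitted effect of over 50% in size; the assay follows cell death caused by Vpr and the record does not say whether a fall means rescue or toxicity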
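Fission yeast strain RE007, carrying one chromosomally integrated HIV-1 vpr copy, was seeded at OD 0.01 in PMG+AL medium with 23 nL pinned compound. After 24 h at 30 °C and 99% humidity, viability was read by BacTiter-Glo luminescence.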
2A StopGo – High Throughput Screening for Foot and Mouth Disease Virus Antivirals | actives 1.2% (n = 410,000) | human cells with a luciferase reporter of 2A StopGo recoding; control for the full effect not named in the record | Potency, µM (top dose mostly 57.9 µM), for inactives: at the highest dose signal change, negative = less light; active = well fitted falling curve with a large enough effect; inconclusive = small, poorly fitted or top-dose-only effect; inactive = no such curve, though single readings can be large or run the other way; tested in HEK293T cells; also: nearly all actives have a fitted effect of over 45% in size; luciferase light after 4 h
* = called active by the depositor; u = inconclusive; [ ] = dose if it differs, or a comment. % is scaled to controls: 0 for no effect and ±100 for the full control effect; potency is read from the fitted curve at half-maximal effect.

cpd	Compound	RE007 growth inh	2A StopGo
1	COc1cccc(-c2cc3nc(NCc4ccc5occc5c4)n(C)c(=O)c3s2)c1	1.2%	-1.2%
2	Cc1cc2oc(C(=O)NCC(c3ccco3)N3CCCC3)c(C)c2cc1C (stereo not given)	-12.6%	-8.4%
3	CCC(C)[C@H](NC(=O)[C@@H]1Cc2ccccc2CN1)C(=O)NCc1ccc(C)cc1 (stereo not given in full)	-0.9%	-10.0%
4	OC[C@@H]1CN(Cc2ccco2)C[C@H](n2cnc3c(NCc4ccc(F)cc4)ncnc32)O1	6.1%	3.9%
5	COc1ccc(-c2nc3ccc(C)cn3c2CC(C)(C)C)cc1OC	-29.1%	-8.0%
6	COc1ccc(C(C)(O)c2nc(-c3cccs3)cs2)cc1 (stereo not given)	16.6%	-15.9%
7	CCN1CCN(S(=O)(=O)c2ccc(Cl)c(C(=O)N(C)C3CCCCC3)c2)CC1	-6.9%	-19.5%
8	CCCCNC(=O)c1c(CSc2ccc(Cl)cc2)noc1C(=O)NCc1ccccc1	1.2%	-16.4%
9	Cc1cc(C)c2cc(C#N)c(NCCNC(=O)c3ccccc3)nc2c1	-0.9%	-12.0%
10	OC(c1ccccc1)(c1ccccc1)C1CCN(CCCOc2ccccc2Cl)CC1	-22.2%	u
11	COc1ccc(-n2c(-c3ccc(Cl)cc3)n[nH]c2=S)c(OC)c1	13.2%	-15.7%
12	COCCNC(=O)c1onc(CSc2ccc(F)c(F)c2)c1C(=O)NCCOC	-12.7%	-15.7%

Next section:
cpd	Compound	RE007 growth inh	2A StopGo
13	O=S(=O)(NC(CO)Cc1ccccc1)c1ccc(Br)cc1F (stereo not given)	-2.2%	-7.7%
14	CCCCOC(=O)c1ccc(NC(=O)c2c(O)[nH]c(=O)[nH]c2=O)cc1	-8.2%	74.4%[activator]
15	CC(C)(C)S(=O)N1Cc2ccc(CO)cc2[C@H]1CCO (stereo not given in full)	-21.3%	-14.2%
16	COC(=O)c1ccc(CNC(=O)Cn2cc(C)c(=O)[nH]c2=O)cc1	7.2%	-4.4%
17	O=C(Nc1ccc(-c2ccccc2)cc1)c1ccc2c(c1)S(=O)(=O)c1ccccc1C2=O	0.2%	-25.3%
18	O=C1NCN(c2ccccc2)C12CCN(C(c1ccnc3ccccc13)c1nnnn1Cc1ccccc1)CC2 (stereo not given)	-8.8%	-7.7%
19	COCCCN1C(=O)C(CC(=O)NCc2cccc3ccccc23)CC(C(=O)N(C)C)=C1C (stereo not given)	-2.7%	-12.6%
20	Cc1ccc(NC(=O)C(C)OC(=O)COc2cccc(C(F)(F)F)c2)cc1S(=O)(=O)N1CCOCC1 (stereo not given)	-5.8%	-10.2%
21	CC[C@H]1CN(C)C[C@@]2(C(=O)OC)Cc3c([nH]c4ccccc34)C(=O)C[C@@H]12	12.9%	-23.9%
22	CCN(c1ccccc1)S(=O)(=O)c1cccc(C(=O)OCC(=O)c2c(N)n(C)c(=O)n(C)c2=O)c1	12.2%	-27.8%
23	O=C1NC[C@@H](CCCCN2C[C@H](Cc3ccc(O)cc3)N(CC3CCCCC3)C(=O)C2=O)N(CC2CCCCC2)C1=O	1.6%	-13.8%
24	CCCCNC(=O)c1nc(-c2ccccc2)oc1-c1ccc(Cl)cc1	2.3%	10.4%

Going on with the list:
cpd	Compound	RE007 growth inh	2A StopGo
25	CCn1c(N2CCN(C(c3ccccc3)c3ccccc3)CC2)nc2c1c(=O)[nH]c(=O)n2C	3.9%	-25.9%
26	CCOC(=O)C1=C[C@@H](C(C)(C)C)N(S(=O)(=O)c2ccc(C)cc2)[C@H]1c1ccc(F)cc1	-15.2%	u
27	CCNC(=O)C1(C)CCCN(C(=O)c2ccc3c(c2)C(C)(C)CCC3(C)C)C1 (stereo not given)	-3.2%	u
28	COCCN1C(=O)N[C@@H](c2ccccc2)[C@H](C(=O)OC)[C@H]1C	-12.1%	-0.1%
29	CC(C)CNc1ncnc2c1ncn2[C@H]1CN(C2CCCC2)C[C@@H](CO)O1	-1.0%	-5.2%
30	Cc1ccc2c(c1)[C@H]1[C@H](CO2)[C@H](c2ccccc2)[C@]2(C)C(=O)Nc3ccc(F)cc3C(=O)N12	5.3%	u
31	Cc1nc(NC(=O)c2ccccc2)sc1-c1cc(C(=O)O)nn1Cc1ccccc1	3.8%	0.0%
32	CC(=O)N1CCCC(C)(C(=O)Nc2ccc3oc(C)nc3c2)C1 (stereo not given)	1.0%[18.4 µM]	-2.7%
33	COC(=O)c1ccc2nc(-c3ccc(OC)c(OC)c3)c(CC3CCCCC3)n2c1	-6.1%	-14.5%
34	N#C/C(=C\c1cccn1S(=O)(=O)c1ccccc1)S(=O)(=O)c1ccc(F)cc1	6.1%	11.2%
35	COc1cccc(-c2cnc3c(NC(C)=O)cc(-c4ccc(C(=O)NC5CC5)cc4)cn23)c1	0.6%	-7.1%
36	C[C@@H]1CN([C@H](C)CO)C(=O)CCCn2nncc2CO[C@H]1CN(C)Cc1ccccc1C(F)(F)F	0.5%	u

Next entries
cpd	Compound	RE007 growth inh	2A StopGo
37	CN(C)C(CNC(=O)c1cc(S(=O)(=O)N2CCOCC2)ccc1Cl)c1cccs1 (stereo not given)	-9.7%	5.7%
38	CN(C)CCCNC(=O)c1cccc(-c2ccc3nncn3c2)c1	-15.1%[18.4 µM]	-6.4%
39	O=C(/C=C/[C@H]1O[C@@H](n2ccc(=O)[nH]c2=O)[C@H](O)[C@@H]1O)NCc1cccnc1	7.3%	-12.2%
40	Cc1ccccc1OC1(C)CCN(Cc2ccc3ccccc3c2)C1 (stereo not given)	-22.8%	-15.5%
41	Cc1cccc(N2CCN(C(C(=O)NCc3ccccc3)c3ccco3)CC2)c1C (stereo not given)	8.4%	-11.0%
42	CSc1ccc(C(O)c2ncc(-c3cccc(F)c3)[nH]2)cc1 (stereo not given)	-13.0%	26.3%
43	CCOC(=O)C1=C(C)N=c2sc(=Cc3cc(Cl)c(OCC(=O)O)c(Cl)c3)c(=O)n2C1c1cccc(OC)c1 (stereo not given)	-13.9%	u
44	CCc1nnc(NC(=O)CSc2nnc(CNC(=O)c3ccccc3)o2)s1	9.9%	-7.3%
45	COc1ccc(C2=Cc3ccccc3C(CC(=O)C3CC3)N2c2ccc(-c3cc(OC)c(OC)c(OC)c3)cc2)cc1 (stereo not given)	-2.3%	-24.9%
46	c1cn2cc(-c3ccc(CN4CCOCC4)cc3)ccc2n1	-21.7%	-7.4%
47	CN(Cc1ccc(Cl)cc1Cl)C(=O)C1CC(=O)N(Cc2ccco2)C1 (stereo not given)	10.6%	-27.5%
48	COCCNC(=O)C1(C)Cc2c(-c3ccc(NC(C)=O)cc3)ccnc2O1 (stereo not given)	2.8%	-16.5%

An excerpt of these results, screen by screen.
(45) COc1ccc(C2=Cc3ccccc3C(CC(=O)C3CC3)N2c2ccc(-c3cc(OC)c(OC)c(OC)c3)cc2)cc1 (stereo not given)
(46) c1cn2cc(-c3ccc(CN4CCOCC4)cc3)ccc2n1
assay / compound	45	46
RE007 growth inh	-2.3%	-21.7%
2A StopGo	-24.9%	-7.4%

Other records:
cpd	Compound	RE007 growth inh	2A StopGo
49	NC(c1csc(NC(=O)Nc2ccccc2Oc2ccccc2)n1)c1ccccc1Cl (stereo not given)	-2.0%	u
50	CC(=O)Oc1ccccc1Cn1c(C)c(C(=O)NCc2ccc(Cl)c(Cl)c2)sc1=O	8.5%[18.4 µM]	-12.9%
51	COCCN1C(=O)N[C@@H](c2cccs2)C(C(C)=O)=C1C	-3.9%	-2.3%
52	OCCOCCn1c(C2CCCN2c2nc(-c3ccc(F)cc3)cs2)nc2cc(C(F)(F)F)ccc21 (stereo not given)	-4.3%	0.3%
53	CC(=O)Nc1ccc(-c2ccnc3c2CC(C(=O)Nc2cccc(Oc4ccccc4)c2)O3)cc1 (stereo not given)	2.2%	-9.9%
54	CC(C)(C)S(=O)N1Cc2cc(C(=O)N3CCOCC3)nc(-c3cccc(Br)c3)c2[C@H]1CCO (stereo not given in full)	0.9%	-23.8%
55	CN(CCc1ccccc1)C(=O)c1ccc(NC(=O)Cc2ccc(NC(=O)C3CCCN(C(=O)CCc4ccccc4)C3)cc2)cc1 (stereo not given)	-2.8%	u
56	NCc1csc(Nc2ncccn2)n1	5.1%[18.4 µM]	-9.5%
57	Cc1nc2cc(OC3(C)CCN(Cc4ccc(OC(F)(F)F)cc4)C3)ccc2s1 (stereo not given)	0.7%	0.0%
58	CSc1ccc(CNC(=O)C2(C)CCCN2CC(C)C)cc1 (stereo not given)	-0.3%	-12.2%
59	O=C1C=C2c3ccccc3CC(C(=O)O)C2CC1 (stereo not given)	5.1%[18.4 µM]	-0.2%
60	Cc1ccc2c(c1)nc1c3ccccc3nc(-c3ccccc3N)n21	-8.6%	-2.1%

Later entries:
cpd	Compound	RE007 growth inh	2A StopGo
61	CCN1C(=O)CC(=O)N(CC)C1=S	8.8%	-26.3%
62	CCC(C(=O)N1CCN(Cc2ccc3c(c2)OCO3)CC1)n1nnc2ccccc2c1=O (stereo not given)	-0.8%	-22.3%
63	OCCCNc1ncnc2c1ncn2[C@H]1CN(Cc2ccc(Cl)cc2)C[C@@H](CO)O1	3.1%	-23.0%
64	CCc1nc2c(OCC(=O)c3ccc(F)cc3)cccn2c1N(C)C(=O)C(C)C	-5.2%	-11.3%
65	CC(C)(C)C(C(=O)NC1CCCC1)N1CCN(c2ncccc2C#N)CC1 (stereo not given)	-25.5%	-26.3%
66	COc1cc2c(cc1OC)C(=NO)CCCC2	-4.0%	-8.2%
67	CCOc1ccccc1NC(=O)COC(=O)C1COc2ccccc2O1 (stereo not given)	-7.8%	-17.5%
68	C[C@@H]1CN([C@H](C)CO)C(=O)CCCn2cc(nn2)CO[C@H]1CN(C)S(=O)(=O)c1cccc(F)c1	-17.9%	-8.3%
69	O=C(NCC1CC1)[C@]1(C(F)(F)F)C[C@H](CCC2CCCCC2)CCCO1	3.9%	-17.3%
70	COc1cccc2ccc(CC(O)(c3ccccc3)c3ccccc3)nc12	-1.0%	-8.1%
71	CN(Cc1cccc(-c2cccnc2)c1)C(=O)Oc1ccc([N+](=O)[O-])cc1	-16.7%	35.5µM*
72	Cc1ccc(S(=O)(=O)NC(C)C(=O)OCC(=O)Nc2sccc2C(N)=O)cc1 (stereo not given)	13.3%	-7.0%

(listing goes on)
cpd	Compound	RE007 growth inh	2A StopGo
73	CN1CCN(c2ccc3c(c2)C2CC3CCN2C(=O)OCc2ccccc2)CC1 (stereo not given)	-11.2%	11.7%
74	COc1cccc(C(NC(C)=O)c2nc(-c3cccc(C(F)(F)F)c3)cs2)c1 (stereo not given)	-2.2%	0.0%
75	COCCN(C(=O)COC(=O)C(C)(C)Oc1ccc(Cl)cc1)c1c(N)n(Cc2ccccc2)c(=O)[nH]c1=O	9.0%	-20.6%
76	COc1ccc(NC(=O)Nc2nc(C(N)CC(C)C)cs2)cc1 (stereo not given)	6.6%	-10.5%
77	Cc1ccc2nc(-c3ccccc3)c(Cc3ccsc3)n2c1	u	-1.7%
78	CC(=O)NC(c1ccc(F)c(F)c1)c1nc(-c2cnc3ccccc3c2)cs1 (stereo not given)	16.9%	16.8%
79	CC(C)[C@@H]1Cc2[nH]c(=S)[nH]c(=O)c2[C@H](C)O1	0.0%	-19.6%
80	CCCCCN1C(=O)c2ccccc2[C@@]2(C(=O)OCC)Cc3cc(OC)ccc3[C@@H]12	0.9%	10µM*
81	CC1(C(=O)NCC2CC2)Cc2c(-c3ccccc3)ccnc2O1 (stereo not given)	2.6%	-10.6%
82	C[C@@H]1CN([C@H](C)CO)S(=O)(=O)c2ccc(Br)cc2O[C@H]1CN(C)C(=O)Nc1cccc(F)c1	5.8%	u
83	COC(=O)c1ccc2c(c1C(=O)OC)CN(S(=O)(=O)C(C)(C)C)[C@H]2CCO	-15.5%	-18.4%
84	CN(C)c1ccc(-c2ccnc3c2CC(C)(C(=O)Nc2cccc(C(F)(F)F)c2)O3)cc1 (stereo not given)	5.1%	-21.2%

Carrying on.
cpd	Compound	RE007 growth inh	2A StopGo
85	O=C(CNS(=O)(=O)Cc1ccccc1)NNc1ccccc1	18.3%	2.3%
86	O=C(O)c1ccc2ccc3ccccc3c2c1	-14.4%	-6.0%
87	COc1ccc(B(O)O)c(CN2CCN(C(=O)OC(C)(C)C)CC2)c1	2.3%	-0.9%
88	COCCNC(=O)C1(C)CCCN(C(=O)c2cccc(Cl)c2)C1 (stereo not given)	18.0%	-5.9%
89	O=C(C(O)c1ccccc1)N1CCN(S(=O)(=O)c2ccc(OC(F)(F)F)cc2)CC1 (stereo not given)	8.2%	-13.1%
90	CCNC(=O)C1CCCN(C(=O)c2ccc3ccccc3c2)CC1 (stereo not given)	-2.5%	-1.6%
91	Cn1c(=O)c2c(-c3ccccc3)n(-c3cc(Cl)c([N+](=O)[O-])cc3O)cc2n(C)c1=O	-28.1%	59.9%[activator]
92	Cc1cccc(NC(=O)CSCC(=O)Nc2ccc(N3CCOCC3)cc2N2CCOCC2)c1	-10.6%	-4.7%
93	O=C1NC[C@H](CCCCN2CCN(CCc3ccc(O)cc3)C(=O)C2=O)N(CCc2ccc(O)cc2)C1=O	4.4%	-19.3%
94	CC(C)c1ccc(CN2CCC(n3nccc3NC(=O)C3CCCC3)CC2)cc1	0.1%	0.0%
95	Cc1ccc(OC(=O)N(C)C[C@@H]2OCc3cnnn3CCCC(=O)N([C@H](C)CO)C[C@H]2C)cc1	-8.5%	-1.7%
96	OC(c1cccc(Cl)c1)c1ncc(-c2ccc(Oc3ccccc3)cc2)[nH]1 (stereo not given)	0.1%	5.8%

This is a subset; rates above refer to the full screens.
